HPGD block = blocks human HPGD enzyme activity; P15428; purified HPGD, NADH fluorescence kinetic, PGE2 substrate; Potency, µM, for inactives: top-dose activity change, negative = inhibition, most hits filed as inhibitors; 4.3% of 150,000 active; active = well fitted inhibition curve with a large enough effect (not every such curve was filed as active); inconclusive = small, poorly fitted or top-dose-only effect, or another doubt; inactive = no such curve, though single readings can be large or run the other way;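 also: top concentration of the series not given in the record; plate controls included wells without enzyme; inactives centre near -10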
Target sequence (P15428 whole entry, looked up): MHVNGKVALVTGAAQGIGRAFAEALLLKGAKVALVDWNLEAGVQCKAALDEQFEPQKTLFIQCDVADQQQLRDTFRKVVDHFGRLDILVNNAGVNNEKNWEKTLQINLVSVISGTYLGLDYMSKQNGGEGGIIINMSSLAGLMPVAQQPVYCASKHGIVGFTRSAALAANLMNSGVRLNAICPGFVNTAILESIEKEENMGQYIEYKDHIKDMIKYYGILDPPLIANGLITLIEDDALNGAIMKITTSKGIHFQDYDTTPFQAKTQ
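NADH formation kinetics: reaction with 30 uM PGE2 and 1 mM NAD+ (final), 20 nM enzyme, Tris-HCl pH 8 with Tween 20, after 15 min compound preincubation at room temperature. Fluorescence change, last versus first of five reads.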
An asterisk follows results filed as active; ? = inconclusive. % is scaled to controls: 0 for no effect and ±100 for the full control effect; potency is read from the fitted curve at half-maximal effect. A portion of the library; rates above refer to the full screens.

compound,HPGD block
Cc1oc(-c2ccccc2Cl)nc1CSCC(=O)N1CCCC1,-15.8%
COc1ccc(-c2csc3ncnc(Oc4ccc5c(C)cc(=O)oc5c4)c23)cc1,?
COc1ccccc1C(=O)Nc1ccc2c(c1)OCCO2,-17.2%
CCn1c(SCC(=O)N2c3ccccc3Sc3ccccc32)nnc1-c1ccco1,-21.5%
Cc1cc(NC(=O)CCC(=O)N(Cc2cccs2)C(C(=O)NC2CCCC2)c2ccncc2)no1 (stereo not drawn),-6.4%
CC(C)CC(=O)NC(=S)Nc1ccccc1C(F)(F)F,?
Cn1nc(C(F)(F)F)c(/C=N/OC(=O)c2ccc(Cl)cc2)c1Cl,0.1%
CCOc1ccc(C2CC(c3cccc(OC)c3OC)n3nnnc3N2)cc1Cl (stereo not drawn),-3.0%
CC(NC(=O)COC(=O)c1cn(-c2ccccc2)nc1-c1cccs1)c1ccccc1 (stereo not drawn),-17.5%
Cc1ccc(C2C3CSCC=C3C(C#N)=C(N)C2(C#N)C#N)cc1 (stereo not drawn),-27.9%
CC(C)(C)c1ccc(Oc2cccc(C3CC(=O)C(C4NCCc5ccccc54)C(=O)C3n3cncn3)c2)cc1 (stereo not drawn),-7.3%
Cc1ccc(-c2cc(C(=O)N3CCN(C(=O)c4ccco4)CC3)no2)cc1,-8.0%
CCOC(=O)C1=C(C)Nc2ncnn2C1c1cccs1 (stereo not drawn),-10.9%
Cc1ccc(NC(=O)COC(=O)C2CC2)c(Br)c1,17.8µM*
Cc1nn(C)c(C)c1NC(=O)Nc1cccc(C(F)(F)F)c1,3.3%

The listing continues.
compound,HPGD block
CCC(C)NC(=O)CSc1nnc(-c2ccoc2C)n1CC1CCCO1 (stereo not drawn),-0.8%
COc1cccc(C(c2c(O)nc(SC)n(C)c2=O)c2c(O)nc(SC)n(C)c2=O)c1,-2.6%
COc1ccc(OC)c(-c2cc(C(=O)Nc3cc(C)n(Cc4ccc(Cl)cc4)n3)no2)c1,?
Cc1ccc2c(c1)NC(=O)C(CC(=O)NCc1cccnc1)O2 (stereo not drawn),-12.8%
O=[N+]([O-])c1cc(C(F)(F)F)ccc1Sc1ccc2ccccc2n1,15.8µM*
Cc1ccc([N+](=O)[O-])c(OCCN2CCNCC2)c1,-1.1%
Cc1cc(C)c2nc(NC(=O)C3CCCO3)sc2c1 (stereo not drawn),-4.2%
CCn1c2ccc(C)cc2c2nc3cc(C(=O)O)ccc3nc21,?
COc1c2ccoc2nc2c(OC)cccc12,?
Cc1ccccc1Nc1nc(-c2ccccc2)c(C(=O)Nc2cccnc2)s1,?
Cn1c(SCc2nc(-c3ccccc3)no2)nnc1-c1ccco1,-4.1%
Cc1nn(C)cc1C(=O)NNC(=S)Nc1ccc(Cl)cc1,-18.3%
CCCCc1c(C)nc(Nc2ccc(OC)cc2)[nH]c1=O,-12.2%
COc1ccc(-c2nc(N3CCC(C)CC3)[nH]c(=O)c2C#N)cc1,-17.4%
Cc1c(Br)c(=O)oc2c(Br)c(O)c(O)cc12,?

Other entries
compound,HPGD block
N#Cc1ccccc1NCc1ccccc1,?
CSc1ncc(Cl)c(C(=O)Nc2sc3c(c2C(=O)NCc2ccco2)CCCC3)n1,-7.2%
COc1cc(/C=N\NC(=O)c2ccc(=O)[nH]n2)cc(OC)c1OC,-13.6%
Cc1c(C(=O)NCc2ccccc2)c(-c2ccccc2)nn1-c1ccccc1,-7.7%
O=C(Cn1c(=O)[nH]c2ccsc2c1=O)NC1CCCCC1,-8.5%
Cc1ccc(NC(=O)Cn2c(=O)n(CCCCC(=O)NCc3ccco3)c(=O)c3ccccc32)cc1,-6.7%
COc1ccc(OC)c(NC(=O)CN2CCC(C(=O)c3ccc(C)cc3)CC2)c1,-8.1%
CN1C(=O)CC(N2CCN(c3ccc(Cl)cc3)CC2)C1=O (stereo not drawn),?
CCCN1CCN(C(=O)c2cccc3c2C(=O)N(CCOC)C3)CC1,-5.5%
O=C(N/N=C/c1ccc2c(c1)OCO2)c1sc2cc(Cl)ccc2c1Cl,-20.4%
CC(C)CNC(=O)NC(=O)COc1ncnc2sccc12,-3.6%
CCc1nc(SCC(=O)NNC(=O)C(C)C)c2ccccc2n1,-6.6%
O=C(CCCSc1nc2ccccc2s1)NC1=NCCS1,-25.2%
Cc1ccc(NC(=O)CN2C(=O)COc3ccc(C)cc32)nc1,-8.9%
Cc1[nH]nc2c1C1(C(=O)Nc3ccc([N+](=O)[O-])cc31)C(C#N)=C(N)O2 (stereo not drawn),-8.3%

Following part:
compound,HPGD block
COc1ccc(/C=C(/NC(C)=O)C(=O)O)cc1,-8.8%
CC(C)c1c(O)ccc2c1CCC1C(C)(C)CCC[C@@]21C (stereo partly drawn),-26.5%
COc1ccc(-n2c(Cc3cccn3C)nnc2SCC(=O)NC2CCCC2)cc1,-2.9%
O=C(NC(=S)Nc1nc2ccccc2s1)c1cccs1,-18.2%
O=C(NCc1ccco1)C1CCN(c2nc3ccccc3n2Cc2ccccc2F)CC1,-15.2%
CCOC(=O)c1ccc(NC(=O)C(CC)CC)cc1,-8.4%
COC(=O)CN1C(=O)COc2ccc(Cl)cc21,-13.1%
OC(CN1CCN(Cc2ccccc2)CC1)c1ccc(F)cc1 (stereo not drawn),-7.1%
O=C(Nc1c(C(=O)NCc2ccco2)cnn1-c1ccccc1)c1cccc(F)c1,3.4%
Cc1ccc(-c2nn(C(C)(C)C)c3ncnc(N)c23)cc1,?
Cc1cc(NC(=O)c2ccccc2NS(=O)(=O)c2c(C)c(C)cc(C)c2C)no1,?
CC(C)C(=O)Nc1cccc(-c2cn3ccccc3n2)c1,?
CN1C(=S)SC(C)(C)C1/[N+]([O-])=C/c1cccnc1 (stereo not drawn),-2.5%
Cc1sc(NC(=O)C2C3CCC(O3)C2C(=O)O)nc1-c1ccc(CC(C)C)cc1 (stereo not drawn),-7.8%
Cc1ccc(N/C(C(Cl)=C(Cl)Cl)=C(/Cl)[N+](=O)[O-])c(C)c1,-24.4%

The results go on:
compound,HPGD block
CCOC(=O)N1CCN(C(=O)Cc2cccs2)CC1,-4.6%
Cn1c(=O)c2[nH]c(CN3CCN(Cc4ccccc4)CC3)nc2n(C)c1=O,-0.1%
COc1ccc(NC2=C(C(C)=O)C(c3ccc(OC)c(OC)c3)C(C(C)=O)C(C)(O)C2)cc1 (stereo not drawn),-0.5%
O=c1cc(N=Nc2ccc(O)cc2)[nH]c(=O)[nH]1,-8.0%
Cc1ccc(C)c(S(=O)(=O)N2CCN(C(C(=O)Nc3ccc(F)cc3)c3ccccc3)CC2)c1 (stereo not drawn),-13.0%
COc1ccc(C(=O)NCC(=O)N=Nc2c(O)n(Cc3ccccc3)c3ccccc23)cc1OC,-6.4%
Cc1ccc(O)c(N=NC2=C(O)CC(C)(C)CC2=O)c1,-18.5%
CCOC(=O)Nc1oc2ccccc2c(=O)c1CN1CCOCC1,-19.6%
COC(=O)CCCC1=CC2=C(c3ccccc3)C(=O)C(C)(OC(=O)C3CCCC3)C(=O)C2=CN1Cc1ccccc1 (stereo not drawn),-3.4%
Cc1ccc(C(=O)N2CCN(c3ccccc3)CC2)cc1C,-10.4%
Cc1cccc(CN2CCCC(C(=O)N3CCc4ccccc4C3)C2)c1 (stereo not drawn),-7.3%
Cc1cc(C)c(C#N)c(=N)o1,?
CCOC(=O)N1CCC(N2CCN(S(=O)(=O)c3ccc(C)cc3)CC2)CC1,-2.5%
N#Cc1c(NCCO)nc(NCc2ccccc2)c2c1CCN(Cc1ccccc1)C2,-22.5%
Cc1ccc(-c2cc(C(=O)NCCCn3ccnc3)c3cc(Br)ccc3n2)o1,?

Continued.
compound,HPGD block
Brc1ccccc1CN1CCC(N2CCCCC2)CC1,-9.9%
CC(=O)N1CC=CC1(CC(C)C)C(=O)NCc1ccc(C)o1 (stereo not drawn),-9.2%
Cc1cc(C)n2nc(C(=O)Nc3cccnc3)nc2n1,-14.5%
CCOc1ccc(S(=O)(=O)N/N=C(\C)c2ccc(Cl)c(Cl)c2Cl)cc1,-9.1%
CC(=O)Nc1ccc(S(=O)(=O)NNC(=O)c2cc3c4ccccc4n(C)c3s2)cc1,?
Cc1cnc(NC(=O)CSc2nnc(-c3cccs3)n2C)s1,-17.9%
CS(=O)(=O)N(CC(=O)Nc1ccc2c(c1)OCCO2)c1ccc2c(c1)OCO2,-16.2%
CCCCOc1ncnc2c1[nH]c1ccc(OC)cc12,-21.3%
CC(C)c1ccc(S(=O)(=O)N2CCN(C(C)C(=O)Nc3ccccc3-c3ccccc3)CC2)cc1 (stereo not drawn),-6.7%
O=C(Nc1cc(Cl)ccc1Cl)C1CC(=O)N(c2ccc(Br)cc2)C1 (stereo not drawn),-12.3%
O=S(=O)(Nc1ccc(N2CCOCC2)cc1)c1cccs1,-13.4%
COc1ccc(Oc2c(O)c3ccccc3n(C)c2=O)cc1,-20.7%
CCN1N=C(c2ccccc2)Cn2c1nc1ccccc12,?
O=C(COc1ccc(Cl)cc1Br)NC(=O)NCc1ccccc1,-8.9%
N#CC(c1ccc(Cl)cc1)c1ncc(C(F)(F)F)cc1Cl (stereo not drawn),-7.8%

The list continues.
compound,HPGD block
CC(=O)C1=C(C)OC(N)=C(C#N)C1c1ccco1 (stereo not drawn),-15.7%
CCOC(=O)CCCCC(=O)c1[nH]c(=O)[nH]c1CSc1nnc2c3ccccc3n(C(C)C)c2n1,?
COc1ccc(C(C)NC(=S)NC2CCCC2)cc1OC (stereo not drawn),-6.2%
CC(=O)Nc1ccccc1-c1nnc(SCc2ccccc2Cl)[nH]c1=O,15.8µM*
O=c1c2c(nc3n1CCCCC3)-c1ccccc1CC21CCCC1,-13.8%
COc1cccc(NC(=O)Nc2nnc(N3CCCCC3C)s2)c1 (stereo not drawn),-1.3%
CC1CCc2c(nc3nc[nH]n3c2=O)C1 (stereo not drawn),-0.9%
CC(C)(C)c1ccc(C(=O)/C=C2\NC(=O)CS2)cc1,-10.3%
S=C(NC1CCCC1)N1CCN(c2ccccn2)CC1,-12.6%
Cc1cccc(NC(=S)N(CCN(C)C)C(C)c2ccco2)c1 (stereo not drawn),-15.4%
C=CCN1C(=O)C(C)(C)N(C(C)=O)c2ccccc21,-1.2%
Cc1nn(-c2cccc(C(=O)O)c2)c(C)c1Oc1ccccc1O,-16.4%
Cc1ccc(-c2cc(C(=O)NC3=NCCS3)c3ccccc3n2)cc1C,-14.6%
Cc1ccc(NC(=S)NNC(=O)c2c(Cl)c(C)nn2C)cc1,-10.5%
COc1ccc(CCN(C)Cc2ccc(OC)c(OCc3ccccc3)c2)cc1OC,6.1%

(list continues)
compound,HPGD block
Cc1cc(C(=O)COC(=O)C2=COCCO2)c(C)n1-c1ccc2c(c1)OCO2,15.8µM*
CC(C)OCCCNc1nc2c(c(=O)n(Cc3ccccc3F)c(=O)n2C)n1C,-8.9%
Cc1ccc2cccc(NC3OC(=O)c4ccccc43)c2n1 (stereo not drawn),1.6%
Cc1ccc(NC(=O)CC(C)N2CCCC2)cc1 (stereo not drawn),-10.1%
Cc1oc(-c2ccccc2F)nc1CS(=O)CC(=O)NCc1ccc2c(c1)OCO2 (stereo not drawn),?
Cc1ccsc1/C=N/NC(=O)Cn1cnc2ccccc21,-20.9%
O=C1c2ccccc2C(=O)N1CCCCN(C(=O)c1ccc(Cl)s1)c1ccc(Cl)cc1,-16.9%
O=C(Cn1c(=O)sc2ccccc21)Nc1nc2c(s1)CCCC2,-5.6%
CCCCN(C(=O)c1cc2ccccc2o1)c1c(N)n(CC(C)C)c(=O)[nH]c1=O,1.9%
C/C=C/c1ccc2oc(-c3ccc(O)cc3)c(C)c2c1,?
CCN(CC)S(=O)(=O)c1ccc(N2CCOCC2)c(NS(=O)(=O)c2ccc(C)c(C)c2)c1,-5.2%
COc1ccc2c(c1)O[C@H](c1ccc3c(c1)OCO3)[C@@H](OC(=O)Nc1ccc(C)c(Br)c1)C2=O,3.2%
CSc1nccc(-c2nn(-c3ccc(C)cc3)ccc2=O)n1,?
CCOc1c2ccc(C(=O)N[C@H](C)C3CCCCC3)cc2nn1CC,?
CCOc1ccccc1C1C(C#N)=C(N)Oc2cc(C)n(Cc3ccccn3)c(=O)c21 (stereo not drawn),-2.2%

Compounds shown so far containing a tert-butyl group:
compound,HPGD block
CC(C)(C)c1ccc(Oc2cccc(C3CC(=O)C(C4NCCc5ccccc54)C(=O)C3n3cncn3)c2)cc1 (stereo not drawn),-7.3%
Cc1ccc(-c2nn(C(C)(C)C)c3ncnc(N)c23)cc1,?
CC(C)(C)c1ccc(C(=O)/C=C2\NC(=O)CS2)cc1,-10.3%

(cont.)
compound,HPGD block
CC1CC(Nc2ccccc2N)=CC(=O)O1 (stereo not drawn),-0.1%
COC(=O)c1ccc(N2C(=O)CC(Sc3n[nH]c(C)n3)C2=O)cc1 (stereo not drawn),15.8µM*
O=C(C[N+]12CN3CN(CN(C3)C1)C2)c1ccc(-c2ccccc2)cc1,-5.3%
COc1ccc(/C=N/NC(=O)c2ccccc2Cl)cc1CSc1nc2ccccc2s1,?
CCc1c(C)nc2ncnn2c1N1CCCC(C(=O)NCc2ccco2)C1 (stereo not drawn),-8.6%
Cc1[nH]nc(-c2ccc(OCc3cnn(-c4ccccc4)c3)cc2O)c1Oc1ccc(F)cc1,?

3 entries from above, ordered by count of non-hydrogen atoms, largest number first.
compound,HPGD block
COc1ccc(/C=N/NC(=O)c2ccccc2Cl)cc1CSc1nc2ccccc2s1,?
CCc1c(C)nc2ncnn2c1N1CCCC(C(=O)NCc2ccco2)C1 (stereo not drawn),-8.6%
COC(=O)c1ccc(N2C(=O)CC(Sc3n[nH]c(C)n3)C2=O)cc1 (stereo not drawn),15.8µM*

Screening results as filed in PubChem.
